INS promoter inh = TRM-6 insulin promoter activity inhibition; TRM-6 cells (human fetal islet line), insulin promoter-eGFP reporter, imaging; reporter expression induced with tamoxifen; inhibition, % at 2 µM; actives 0.9% (n = 130,000); AID 1273;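 active = inhibition above the mean plus 3 SD, with well images judged a real hit on visual review, cut at about 60% in these data, passing the limit was not always enough; inconclusive = inhibition over the cutoff but images rejected on review; inactive = inhibition not above the cutoff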
PKD1 inh = inhibitors of human PKD1 kinase. Q15139. PKD1 kinase fluorescence polarization assay. inhibition, %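 (about 10 µM by stock and volumes)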. actives 0.056% (n = 200,000);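 active = inhibition of 50% or more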;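 note: controls were vehicle for no effect and a reference inhibitor for full effect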
Target sequence (Q15139 whole entry, looked up): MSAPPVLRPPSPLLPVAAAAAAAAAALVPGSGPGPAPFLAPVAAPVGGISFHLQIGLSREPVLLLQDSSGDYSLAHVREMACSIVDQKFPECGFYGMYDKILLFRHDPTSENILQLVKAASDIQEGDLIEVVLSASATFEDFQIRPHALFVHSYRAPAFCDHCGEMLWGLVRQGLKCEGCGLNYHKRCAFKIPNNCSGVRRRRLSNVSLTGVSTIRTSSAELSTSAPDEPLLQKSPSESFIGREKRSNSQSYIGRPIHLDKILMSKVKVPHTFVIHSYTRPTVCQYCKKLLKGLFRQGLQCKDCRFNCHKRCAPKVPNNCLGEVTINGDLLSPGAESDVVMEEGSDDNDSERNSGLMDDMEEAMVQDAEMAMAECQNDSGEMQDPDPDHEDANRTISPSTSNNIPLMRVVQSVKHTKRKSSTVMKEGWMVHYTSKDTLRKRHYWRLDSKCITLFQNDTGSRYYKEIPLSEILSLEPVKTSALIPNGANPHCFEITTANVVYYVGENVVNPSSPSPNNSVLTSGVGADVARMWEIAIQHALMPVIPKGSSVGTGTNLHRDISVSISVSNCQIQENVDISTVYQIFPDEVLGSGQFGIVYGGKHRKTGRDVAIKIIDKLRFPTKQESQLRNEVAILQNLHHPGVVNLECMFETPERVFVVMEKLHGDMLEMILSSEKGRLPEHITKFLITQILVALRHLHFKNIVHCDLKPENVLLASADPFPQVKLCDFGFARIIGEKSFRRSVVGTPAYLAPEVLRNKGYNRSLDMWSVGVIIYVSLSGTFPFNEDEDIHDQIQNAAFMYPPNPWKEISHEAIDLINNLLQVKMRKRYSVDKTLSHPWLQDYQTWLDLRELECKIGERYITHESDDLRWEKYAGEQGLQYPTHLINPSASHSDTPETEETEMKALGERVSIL
HSV augment = HSV replication enhancement | maximum fold increase | AID 1956 | actives 0.005% (n = 220,000) | HSV replication augmentation in cells, fold increase;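 active = peak rise of 1.5-fold or more in the series; inconclusive = self-fluorescent or not available for retest; tested in PC3 cells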;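 note: first round at 10 µM; read as green reporter fluorescence; hits show the peak of a series up to 25 µM; 1 = signal of infected wells without compound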
RGS16-Gao = RGS16-Galphao interaction regulator (human); binding response (% of control), % at 10 µM; O15492+P09471; bead-based flow cytometry RGS16-Galphao binding, fluorescence; actives lie on both sides; actives 0.38% (n = 220,000);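 active = below 25% or above 175%, edge rows of some plates excepted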;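 note: Galphao activated by GDP with aluminum fluoride before binding; 100% = wells without compound and 0% = beads without RGS; some results beyond the cut were filed as inactive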
GALR2 agonist = GALR2 (human) receptor agonism. activation, %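 (tested at 5 µM)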. actives 0.48% (n = 140,000). AID 803. GALR2-expressing cells, agonist activation read-out. O43603;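 active = above mean plus 3 SD of all compounds, about 5% in these data, not always enough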;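 note: 0% = vehicle buffer wells and 100% = reference agonist at full effect; tested in CHO reporter cells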
INS promoter inh cell count = second read-out of INS promoter inh, no call of its own (marks repeat the call); normalized cell count, %; measured here: cell count, toxicity; reference of the scale not given here;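 cells exposed to compound for 48 h; stained nuclei by imaging scaled within each plate; lower means fewer cells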
HSV augment primary fold = recorded beside HSV augment, whose call it bears; fold increase; compound at 10 µM; measured here: primary screen fold increase 10 uM; tested in PC3 cells;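 GFP signal in the first replicate; 1 = infected wells without compound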
Starred values were filed as active, the others as inactive; i = inactive; ? = inconclusive; . = no result given.

SMILES | INS promoter inh | INS promoter inh cell count | PKD1 inh | HSV augment | HSV augment primary fold | RGS16-Gao | GALR2 agonist
CCCc1cc(C(=O)Nc2cc(Br)ccc2O)no1 | 0 | 149 | -6 | i | 0.84 | 101 | 0.3
COc1cc(OC)c(-c2nc3ccccc3s2)cc1OC | . | . | -2 | i | 0.85 | 102 | .
COc1ccccc1CN1CCNC(=O)C1CC(=O)NCCc1cnccn1 (centres undefined) | . | . | 8 | i | 1.1 | 101 | .
CCOc1ccccc1N1CCN(C(=O)c2c(C)noc2C)CC1 | -167 | 92 | -1 | i | 1 | 98 | -2.5
COc1ccc(-c2nc3n(c(=O)c2C#N)CCS3)cc1 | -8 | 94 | 4 | i | 1 | 100 | .
COC(=O)Sc1nc(N2CCOCC2)c2c(c1C#N)CC(C)(C)OC2 | . | . | 11 | i | 0.87 | 92 | 0.8
CN1C(=O)SC(Nc2cccc3ccccc23)C1=O (centres undefined) | 50 | 87 | 7 | i | 0.86 | 104 | -1.1
CCOC(=O)c1c(-c2ccc(C)o2)csc1NC(=O)CN(C)CC(=O)Nc1ccc(C)cc1 | 11 | 70 | -3 | i | 0.73 | 101 | 0.1
Cn1c(=O)c2cn(-c3ccccc3)cc2n(C)c1=O | 9 | 109 | -1 | i | 1 | 100 | 0.0
COc1ccc(NC(=O)C2CCCN2C(=O)Nc2cccc(F)c2)cc1 (centres undefined) | . | . | -6 | i | 0.86 | 107 | .
Cc1nc2c(C(=O)NCCc3ccccc3Cl)c[nH]n2c(=O)c1Cl | 11 | 118 | -20 | i | 0.88 | 103 | -1.4
O=C(NCCc1nc2ccccc2[nH]1)/C(=C/c1ccco1)NC(=O)c1ccccc1Br | -71 | 156 | 5 | i | 0.93 | 100 | -0.6

Entries of single compounds, looked up by structure:
`CN1C(=O)SC(Nc2cccc3ccccc23)C1=O` (centres undefined) is listed as INS promoter inh = 50; INS promoter inh cell count = 87; PKD1 inh = 7; HSV augment = i; HSV augment primary fold = 0.86; RGS16-Gao = 104; GALR2 agonist = -1.1
`COC(=O)Sc1nc(N2CCOCC2)c2c(c1C#N)CC(C)(C)OC2` is listed as INS promoter inh = .; INS promoter inh cell count = .; PKD1 inh = 11; HSV augment = i; HSV augment primary fold = 0.87; RGS16-Gao = 92; GALR2 agonist = 0.8

(further entries)
SMILES | INS promoter inh | INS promoter inh cell count | PKD1 inh | HSV augment | HSV augment primary fold | RGS16-Gao | GALR2 agonist
Cn1c(SCC(=O)Nc2cccc(F)c2)nc2c([nH]c3ccccc32)c1=O | 37 | 84 | -1 | i | 0.89 | 97 | .
Cc1ccc(NC2=C/C(=N/S(=O)(=O)c3cccs3)c3ccccc3C2=O)cc1 | 34 | 31 | -1 | i | 0.59 | 108 | 2.3
Cc1ccc(CN2CCN(/N=C/c3sccc3C)CC2)c(C)c1 | 23 | 100 | -7 | i | 1 | 85 | -0.2
CC1c2ccsc2CCN1S(=O)(=O)c1cccs1 (centres undefined) | . | . | . | ? | . | 101 | .
O=C(Cc1cccs1)N(c1ccc(F)cc1)C1(C(=O)NC2CCCCC2)CCCC1 | -15 | 100 | 4 | i | 1.1 | 104 | -0.6
CCOc1ccccc1N(CC(=O)Nc1ccc2c(c1)OCO2)S(C)(=O)=O | . | . | -16 | i | 1 | 94 | -3.6
O=C(Nc1c(O)c2ccccc2[nH]c1=O)c1ccco1 | . | . | . | i | 0.97 | 107 | .
COc1ccc2c(C)cc(SCC(=O)c3ccc4c(c3)OCO4)nc2c1 | -37 | 28 | 1 | i | 1.1 | 109 | -1.5
Nc1ccc2nc(SCC(=O)Nc3ccc(N4CCOCC4)c(Cl)c3)sc2c1 | -77 | 130 | -5 | i | 0.87 | 102 | -0.5
CC1c2[nH]c3ccccc3c2CCN1S(C)(=O)=O (centres undefined) | 38 | 113 | 1 | i | 0.94 | 94 | -0.5
COc1ccccc1C(=O)Nc1ccc(N2CCN(Cc3ccccc3)CC2)cc1 | -20 | 94 | 7 | i | 1 | 190 | -0.8
CC(C)CSc1nnc2c(n1)[nH]c1ccccc12 | -23 | 140 | -5 | i | 0.87 | 89 | -3.5

No new results follow: entries from further up.
SMILES | INS promoter inh | INS promoter inh cell count | PKD1 inh | HSV augment | HSV augment primary fold | RGS16-Gao | GALR2 agonist
O=C(Nc1c(O)c2ccccc2[nH]c1=O)c1ccco1 | . | . | . | i | 0.97 | 107 | .
COc1ccc2c(C)cc(SCC(=O)c3ccc4c(c3)OCO4)nc2c1 | -37 | 28 | 1 | i | 1.1 | 109 | -1.5
Nc1ccc2nc(SCC(=O)Nc3ccc(N4CCOCC4)c(Cl)c3)sc2c1 | -77 | 130 | -5 | i | 0.87 | 102 | -0.5
CC1c2[nH]c3ccccc3c2CCN1S(C)(=O)=O (centres undefined) | 38 | 113 | 1 | i | 0.94 | 94 | -0.5
COc1ccccc1C(=O)Nc1ccc(N2CCN(Cc3ccccc3)CC2)cc1 | -20 | 94 | 7 | i | 1 | 190 | -0.8
CC(C)CSc1nnc2c(n1)[nH]c1ccccc12 | -23 | 140 | -5 | i | 0.87 | 89 | -3.5

Further results follow:
SMILES | INS promoter inh | INS promoter inh cell count | PKD1 inh | HSV augment | HSV augment primary fold | RGS16-Gao | GALR2 agonist
O=C(c1cccs1)N1CCN(Cc2ccncc2)CC1 | 17 | 191 | 5 | i | 0.98 | 106 | -0.6
O=C(COc1ccccc1O)Nc1ccccc1Cl | 29 | 39 | -8 | i | 0.93 | 100 | -3.4
COc1ccc(C2C(CN3CCOCC3)C(=O)N2c2ccccc2)cc1 (centres undefined) | -23 | 72 | -3 | i | 0.99 | 102 | .
Cc1ccc(-c2cc(C(F)F)n3ncc(C(=O)Nc4cn(C)nc4C)c3n2)cc1 | 7 | 117 | -4 | i | 0.87 | 111 | .
O=C(COC(=O)Cn1cnc2ccccc21)Nc1ccc2c(c1)C(=O)c1ccccc1C2=O | 19 | 99 | 5 | i | 0.83 | 124 | -0.1
N#C/C(=C\Nc1ccc(Cl)cn1)S(=O)(=O)c1ccccc1 | . | . | . | i | 0.71 | 88 | .
Cc1c(Cl)c(=O)n2c(=O)c(Cl)c(C)n12 | . | . | -6 | i | 0.84 | 98 | .
Cc1ccc2nc(N/N=C/c3ccccc3F)nc(-c3ccccc3)c2c1 | . | . | -1 | i | 1.1 | 101 | 0.8
Cc1ccc(C)c(N2CN(CCC3=CCCCC3)CNC2=S)c1 | . | . | . | i | 0.92 | 101 | .
CN(CC(=O)NCc1cccnc1)S(=O)(=O)c1ccccc1 | . | . | . | i | 0.96 | 106 | .
CC1(C)C(=O)Nc2ccccc2N1C(=O)CSc1nc(-c2ccccc2)cs1 | -13 | 152 | -8 | i | 0.97 | 96 | 0.6
CCOC(=O)/C(=N/Nc1ccccc1OC)N1CCCc2ccccc21 | . | . | . | i | 1.1 | 103 | .
CC(=O)Nc1ccc(-c2nnc(SCC(=O)Nc3ccc4c(c3)oc3ccccc34)n2C)cc1 | 16 | 101 | 1 | i | 0.89 | 97 | 0.1
CC(C)CNS(=O)(=O)c1ccc(CC(C)C)cc1 | . | . | -7 | i | 1 | 100 | .
O=C1C=C(c2ccccc2)C[C@H](c2cccs2)[C@H]1n1cnc([N+](=O)[O-])c1 | 6 | 97 | -4 | i | 0.8 | 101 | -0.1
CN(C)c1cc(-c2ccc(Cl)c(Cl)c2)oc(=O)c1Cl | . | . | . | i | 0.72 | 104 | .
O=C(COC(=O)c1ccc(NS(=O)(=O)c2cccs2)cc1)NCc1ccco1 | . | . | . | i | 1.1 | 91 | .
Cc1cc(C(=O)OCC(=O)Nc2ccc(F)cc2F)c(C)o1 | . | . | -9 | i | 0.99 | 104 | -1.9
CC1(C(=O)NC2CCCCCCC2)CCC(=O)N1CCN1CCOCC1 (centres undefined) | . | . | -3 | i | 0.8 | 101 | -3.9
CCOC(=O)c1cnc2c(C)cccc2c1NCCc1ccc(OC)c(OC)c1 | -7 | 102 | -9 | i | 0.98 | 103 | -0.9
COc1ccc(CCNC(=O)COc2ccccc2[N+](=O)[O-])cc1OC | . | . | . | i | 0.93 | 94 | .
CCN(CCn1cccn1)C(=O)CCc1nnc(Cc2c[nH]c3ccccc23)o1 | . | . | -6 | i | 0.99 | 100 | .
COc1ccc(CC(=O)NC2CCN(CC(=O)Nc3ccc4c(c3)OCCO4)CC2)cc1OC | 5 | 162 | -9 | i | 0.87 | 103 | -1.0
CC(C)N(CCc1ccncc1)C(=S)Nc1ccc(F)c(Cl)c1 | . | . | 2 | i | 0.96 | 102 | .
CC(C)c1c(O)nc(SCC(=O)N2CCOCC2)[nH]c1=O | 3 | 51 | -1 | i | 0.98 | 109 | -2.0
CC(=O)NC(Cc1ccccc1)C(=O)NC1CCN(C(=O)NC2CCCCC2)CC1 (centres undefined) | -77 | 41 | -16 | i | 0.68 | 114 | 0.9
O=C(NCC1CCCO1)c1coc2nc3ccccc3nc12 (centres undefined) | . | . | -6 | i | 1 | 97 | 1.4
CSc1ccccc1NC(=O)c1cc(CC(C)C)on1 | . | . | -3 | i | 1 | 97 | -0.9
Cc1ccc(NC2c3ncccc3C(=O)N2c2ccccc2C)cc1C (centres undefined) | 57 | 100 | -4 | i | 0.95 | 97 | 0.2
Oc1ccccc1/C=N/n1cnn(Cc2ccccc2Cl)c1=S | -25 | 98 | -7 | i | 0.85 | 104 | -1.4
N#Cc1ccc(Sc2ccccn2)c([N+](=O)[O-])c1 | . | . | . | i | 0.89 | 99 | .
CCOc1ccc(N(C(=O)CNS(=O)(=O)c2ccccc2)C(CC)C(=O)NCc2ccco2)cc1 (centres undefined) | 48 | 47 | 1 | i | 1 | 92 | .
Cc1cccc(NC(=O)c2c(C)cc(=O)oc2C)n1 | . | . | -1 | . | . | 77 | -2.6
O=C1Nc2ccccc2C12OC1CCCCC1O2 (centres undefined) | -4 | 137 | -6 | i | 1.1 | 102 | -1.4
CCOC(=O)N1CCC(Nc2c(NCCCN3CCN(c4ccc(OC)cc4)CC3)c(=O)c2=O)CC1 | . | . | . | i | 1 | 85 | .
O=C(COc1ccc2c(c1)CCC2)NCc1ccc(Cl)cc1 | -27 | 66 | -16 | i | 0.97 | 101 | -0.5
Cc1cccc2cc(C#N)c(SCCN3CCCCC3)nc12 | -53 | 128 | -5 | i | 0.71 | . | 2.2
CSCC[C@H](NC(=O)CCNC(C)=O)c1nc2ccccc2[nH]1 | 54 | 139 | -2 | i | 0.81 | 155 | -0.4
CN(C)CCNC(=O)/C=C/c1cn(-c2ccccc2)nc1-c1cc2ccccc2oc1=O | -57 | 126 | -2 | i | 0.79 | 109 | .
COC(=O)[C@H](CC(C)C)NC(=O)NC1CCCCC1C (some centres undefined) | -15 | 96 | 1 | i | 0.92 | 99 | -0.6
CC(NC(=O)C1C2C=CC(C2)C1C(=O)O)c1ccccc1 (centres undefined) | 44 | 128 | -3 | i | 1.1 | 105 | -2.4
Fc1ccc(C2C3=C(Nc4ncnn42)c2ccccc2OC3c2ccncc2)cc1 (centres undefined) | 0 | 65 | -2 | i | 0.98 | 102 | -0.5
O=C(Nc1ccc(F)cc1)Nc1ccc(NC(=O)c2ccccc2O)cc1 | . | . | . | i | 1.1 | 104 | .
Cn1c(CS/C(N)=N/N=C/c2ccccc2)c(Br)c(=O)n1-c1ccccc1 | 6 | 106 | -1 | i | 0.89 | 104 | 0.0
C=CCCCCCCCCc1nc(SCC(=O)O)n[nH]1 | . | . | . | i | 0.79 | 102 | .
COc1cccc(C2C(C(=O)c3sc(C)nc3C)=C(O)C(=O)N2CCN2CCOCC2)c1 (centres undefined) | . | . | 12 | i | 0.91 | 108 | -0.1
COc1ccc2cc3cc(C(=O)N4CCN(Cc5ccc6c(c5)OCO6)CC4)oc3nc2c1 | 22 | 102 | -11 | . | . | 102 | -2.1
CN1CCN(NC(=O)c2cn(-c3ccccc3)nc2-c2cccc(Br)c2)CC1 | . | . | -1 | i | 0.78 | 101 | .
COc1cc(C2CC(=O)N3CN(c4ccccc4C)CSC3=C2C#N)cc(OC)c1OC (centres undefined) | . | . | -9 | i | 0.93 | 79 | 0.7
CCOC1(C(F)(F)F)NC(=O)N(Cc2ccc(OC)cc2)C1=O (centres undefined) | . | . | -4 | i | 0.84 | 54 | -0.6
CCCCOc1ccccc1C1CC(=O)NC2=C1C(=O)CCC2 (centres undefined) | -45 | 80 | -16 | . | . | 106 | -1.3

Reformatted with values under each structure: entries from further up.
Below each SMILES – INS promoter inh	INS promoter inh cell count	PKD1 inh	HSV augment	HSV augment primary fold	RGS16-Gao	GALR2 agonist
- COc1ccc2c(C)cc(SCC(=O)c3ccc4c(c3)OCO4)nc2c1
  -37	28	1	i	1.1	109	-1.5
- CCN(CCn1cccn1)C(=O)CCc1nnc(Cc2c[nH]c3ccccc23)o1
  .	.	-6	i	0.99	100	.
- CN1C(=O)SC(Nc2cccc3ccccc23)C1=O (centres undefined)
  50	87	7	i	0.86	104	-1.1
